Screening results: PubChem BioAssay, several laboratories
UUG fidelity = alters start codon recognition fidelity in yeast; S. cerevisiae UUG-firefly luciferase reporter, luminescence/redox ratio; activity score, % at 18.7 µM; 350,000 compounds, 0.13% hits;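 active = replicate mean at a twofold rise or more, about +100% in these data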;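 also: firefly luciferase made from a UUG start codon reports start codon fidelity; reporter light over untreated wells divided by growth signal over untreated wells; some hits fall short of that in this replicate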
MT1-MMP act inh = blocks activation of human MT1-MMP. HT1080 RFP-PRO-GFP cells, GFP/RFP ratio fluorescence, overnight; percent of plate control window, DMSO zero. GFP/RFP ratio change, % at 20 µM. P50281. AID 651647. 360,000 compounds, 0.061% hits;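 active = GFP/RFP ratio change of at least 30% with cell ATP level not reduced by more than half and red fluorescence within 50% of control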; also: strong numbers were not always called active
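Assay system: HT1080 RFP-PRO-GFP cells | Dosing: 20 µM single dose, 1% DMSO | Incubation: Cells overnight before dosing, compound overnight, 37 °C, 5% CO2 | Evaluation: GFP/RFP fluorescence ratio | Control set: DMSO-only wells and HT1080 RFP-L50D-GFP cell wells as references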
Env fusion inh = HIV envelope-mediated fusion inhibition; HeLa-JRFL Env/CEM21 cell fusion, luciferase; inhibition, % at 12.3 µM; 360,000 compounds, 1.1% hits;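 active = mean replicate inhibition score of at least 50 and every replicate individually at or above 50; inconclusive = only one of the two criteria met; inactive = mean below 50 and not all replicates reaching 50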;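 also: 0% = plate neutral controls and 100% = maraviroc near 300 nM; one replicate is shown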
MT1-MMP act inh RFP = further read-out of MT1-MMP act inh, marked with its call; RFP signal change, %; measured here: RFP expression control read;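 0 = vehicle wells; hits needed this value within 50% of zero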
The depositor's hits bear a star; i = inactive; ? = inconclusive; / = not tested or not shown; [ ] = dose if it differs, or a comment. These rows are one share of the data (hit frequency here may not be typical).

SMILES	UUG fidelity	MT1-MMP act inh	MT1-MMP act inh RFP	Env fusion inh
CC=Cc1ccc2n(c1=O)C[C@@H]1[C@@H](CO)[C@H](C(=O)OC)[C@H]2N1S(=O)(=O)c1cccc(C)c1 (mixture of isomers)	/	/	/	61*[16.7 µM]
CCCN1[C@@H]2Cn3c(ccc(-c4cccc(C(=O)N(C)C)c4)c3=O)[C@H]1[C@@H](C(=O)OC)[C@@H]2CO	/	/	/	-5[16.7 µM]
CN1CC[C@@H]2CN[C@H](c3ccccc3Br)C[C@@H]21	/	/	/	16
O=C(O)[C@H]1[C@H](CO)[C@H]2Cn3c(ccc(-c4ccc(F)cc4)c3=O)[C@@H]1N2CC1CCCC1	/	/	/	-10[16.7 µM]
Cc1cc(O)ccc1Cl	/	/	/	-14
Cc1ccc(C(=O)NCCN2CCC3(CC2)C(=O)NCN3c2ccccc2)cc1	/	/	/	-14
O=C(c1ccccc1)N1Cc2cc(Br)ccc2-n2nncc2C1	/	/	/	-12
Cc1cc(N2CCNC[C@@H]2C)ccc1N1CCN[C@@H](C)C1	/	/	/	14
c1ccc(CCN2CCC3CCNC3C2)cc1 (stereo unspecified)	/	/	/	-11
CC(=O)C1=C(C)OC2=C(C(=O)CCC2)[C@@]12C(=O)N(C)c1ccccc12	/	/	/	3
COc1cccc(-c2ccc3c(c2)C2c4cnnn4-c4ccccc4C(=O)N2CC3)c1 (stereo unspecified)	/	/	/	-84
Cc1cccc2nc(-c3ccccc3)c(-c3ccc(CN4CCC(n5c(=O)[nH]c6cc(Cl)ccc65)CC4)cc3)nc12	/	/	/	-49
CCCNC(=O)[C@@H]1[C@@H](CO)[C@@H]2Cn3c(cccc3=O)[C@@H]2N1C	/	/	/	2[16.7 µM]
O=C(O)[C@H]1[C@H](CO)[C@H]2Cn3c(ccc(-c4ccccc4F)c3=O)[C@@H]1N2C(=O)c1cccnc1	/	/	/	-5[16.7 µM]
Fc1ccc2nc(-c3ccc(CN4CCC(n5nnc6ccccc65)CC4)cc3)c(-c3ccccc3)nc2c1	/	/	/	17
Clc1cc(Cl)cc(CN2Cc3cc(Br)ccc3-n3nncc3C2)c1	/	/	/	?
COc1cccc(NC2=NCCS2)c1	/	/	/	-4
CC=Cc1ccc2n(c1=O)C[C@H]1[C@H](CO)[C@@H](C(=O)OC)[C@@H]2N1CC1CCOCC1 (mixture of isomers)	/	/	/	?
O=S(=O)(c1ccc(Cl)cc1)N1Cc2ccc(Br)cc2-n2nncc2C1	/	/	/	41
CCCCCCCCCCOC(=O)CCN1CC1	/	3	6	/

3 entries picked at random from those above, as already listed:
SMILES	UUG fidelity	MT1-MMP act inh	MT1-MMP act inh RFP	Env fusion inh
COc1cccc(NC2=NCCS2)c1	/	/	/	-4
CCCNC(=O)[C@@H]1[C@@H](CO)[C@@H]2Cn3c(cccc3=O)[C@@H]2N1C	/	/	/	2[16.7 µM]
COc1cccc(-c2ccc3c(c2)C2c4cnnn4-c4ccccc4C(=O)N2CC3)c1 (stereo unspecified)	/	/	/	-84

More records.
SMILES	UUG fidelity	MT1-MMP act inh	MT1-MMP act inh RFP	Env fusion inh
O=C(NP(=O)(N1CC1)N1CC1)c1cc(I)ccc1I	/	0	6	/
O=C1NC(=O)C(CCOc2ccccc2)(CCc2ccccc2)C(=O)N1	/	2	-4	/
CC1=CC(O)C(O)C2(C)C1CC1OC(=O)C(O)C3C(C)C(O)C4(O)OCC13C42 (stereo unspecified)	/	-23	-9	/
CCOC(=O)[C@@H]1[C@@H]2NC(=S)N(C)[C@@]1(C)Oc1ccccc12	2	/	/	-22[16.7 µM]
C[C@H]1CN([C@@H](C)CO)C(=O)CCCn2cc(nn2)CO[C@@H]1CN(C)C(=O)Oc1ccc2ccccc2c1	-4	/	/	-8[16.7 µM]
CCOC(=O)[C@@H]1[C@@H]2NC(=S)N[C@@]1(C)Oc1ccccc12	3	/	/	-9[16.7 µM]
S=C(NCCc1ccccc1)N1Cc2ccc(Br)cc2-n2nncc2C1	5	/	/	-1
Cc1ccc(OC(=O)N(C)C[C@H]2OCc3cnnn3CCCC(=O)N([C@@H](C)CO)C[C@@H]2C)cc1	6	/	/	7
COC(=O)C[C@@H]1CC[C@H]2NC[C@H](O)COC[C@@H]2O1	-7	/	/	-16[16.7 µM]
COC(=O)C1C(O)CC2CCC1N2C (stereo unspecified)	-20	-2	7	/
COc1cc2oc(=O)c(CC(=O)N3C[C@H]4C[C@@H](C3)c3cccc(=O)n3C4)c(C)c2cc1Cl	-13	-1	1	/
C=CCC1([C@@H](C)CCC)C(=O)NC(=O)NC1=O	-5	0	4	/
C[C@]1(O)CC[C@H]2[C@@H]3CCC4=CC(=O)CC[C@]4(C)[C@@]3(F)[C@@H](O)C[C@@]21C	-4	0	5	/
CC1OC(OC2CC(O)C3(CO)C4C(O)CC5(C)C(C6=CC(=O)OC6)CCC5(O)C4CCC3(O)C2)C(O)C(O)C1O (stereo unspecified)	-12	-44	-38	/
CCOC(=O)c1cccc(C2=C(CNC(=O)c3ccc([N+](=O)[O-])cc3)[C@H]3CC[C@@H](C2)N3Cc2ccccc2)c1	-13	4	2	/
CS(=O)(=O)CCN1CC2CCCC(C2)C1	-13	-1	1	/
O=C(NCC1=C(c2ccc3ccccc3c2)C[C@@H]2CC[C@H]1N2Cc1ccco1)c1cccnc1	-8	-2	3	/
c1cc2c(c(NC3=NCCCS3)c1)CCCC2	-2	-2	6	/
COc1cc(C2c3cc(O)c(OC)cc3CC3C(=O)OCC32)ccc1O (stereo unspecified)	-11	2	3	/
COc1ccc2c3c1OC1C(=O)CC[C@@]4(O)[C@@H](C2)N(C)CC[C@]314 (stereo partly specified)	7	-4	3	/
Cn1c(=O)oc(=O)c2ccccc21	-7	-3	0	/
COC1=CC(=O)OC(CCc2ccc3c(c2)OCO3)C1 (stereo unspecified)	-38	-2	2	/
O=C(O)C(O)(c1ccc(Cl)cc1)C1(O)CCCC1 (stereo unspecified)	-9	4	9	/
Cc1cc(-c2ccc(N)c(C)c2)ccc1N	-5	2	1	/
C=C(C)C(Cc1c(OC)ccc(C(=O)/C=C/c2ccc(O)cc2)c1O)OO (stereo unspecified)	-3	-6	-7	/
O=C(c1cccs1)N1CCC(C(=O)O)(c2ccccc2)CC1	-5	-1	3	/
COc1ccc(C(=O)O)cc1OC	6	1	1	/
COc1cc(C2c3cc4c(cc3CC3COC(=O)C32)OCO4)cc(OC)c1OC (stereo unspecified)	-17	18	8	/
COc1ccc(-n2nnnc2C(CCSC)N2CCC(n3c(=O)[nH]c4ccccc43)CC2)cc1 (stereo unspecified)	2	-9	0	/
O=[N+]([O-])c1ccc(OP(=O)(O)Oc2ccc([N+](=O)[O-])cc2)cc1	-2	0	1	/
Cc1ccc(N)cc1C	22	4	7	/
C=CC1CN2CCC1CC2C(O)c1ccnc2ccccc12 (stereo unspecified)	-17	-2	0	/
CS(=O)(=O)c1ccc(C2=C(CNC(=O)c3nccs3)[C@H]3CC[C@@H](C2)N3Cc2ccco2)cc1	-5	0	4	/
COc1ccc2c(c1)C13CCN4CC5=CCOC6CC(=O)N2C1C6C5CC43 (stereo unspecified)	2	-2	6	/
Cc1[nH]nc2ccc(-c3cncc(OC[C@@H](N)Cc4c[nH]c5ccccc45)c3)cc12	-22	-24	-19	/
O=C(COC(=O)Cc1ccccc1)NNC(=O)c1ccc([N+](=O)[O-])cc1	-10	0	1	/
CC1=CC(O)C(O)C2(C)C1CC1OC(=O)CC3C(C)C(O)C(=O)C2C13CO (stereo unspecified)	-15	-28	-13	/
CC12CCC(O)CC1CCC1C2CCC2(C)C(C(=O)CO)CCC12 (stereo unspecified)	13	8	-4	/
CS(=O)(=O)c1ccc(C2=C(CNC(=O)c3ccc([N+](=O)[O-])cc3)[C@H]3CC[C@@H](C2)N3CCOc2ccccc2)cc1	16	7	5	/
Cc1ncoc1C(=O)NCC1=C(c2ccc3ccccc3c2)C[C@@H]2CC[C@H]1N2Cc1ccco1	-12	1	5	/

Molecules above with a furan ring, fused or not, in the order listed:
SMILES	UUG fidelity	MT1-MMP act inh	MT1-MMP act inh RFP	Env fusion inh
O=C(NCC1=C(c2ccc3ccccc3c2)C[C@@H]2CC[C@H]1N2Cc1ccco1)c1cccnc1	-8	-2	3	/
CS(=O)(=O)c1ccc(C2=C(CNC(=O)c3nccs3)[C@H]3CC[C@@H](C2)N3Cc2ccco2)cc1	-5	0	4	/
Cc1ncoc1C(=O)NCC1=C(c2ccc3ccccc3c2)C[C@@H]2CC[C@H]1N2Cc1ccco1	-12	1	5	/

Next results:
SMILES	UUG fidelity	MT1-MMP act inh	MT1-MMP act inh RFP	Env fusion inh
COc1cc(C(=O)O)cc(OC)c1OC	-12	-1	-7	/
CCOC(=O)c1cccc(C2=C(CNC(=O)c3nccs3)[C@H]3CC[C@@H](C2)N3Cc2ccccc2)c1	-19	1	0	/
C=CCN1CC[C@]23c4c5ccc(O)c4OC2[C@H](O)CC[C@@]3(O)[C@H]1C5 (stereo partly specified)	-9	-2	4	/
CCOC(=O)c1cccc(C2=C(CNC(=O)c3ccncc3)[C@H]3CC[C@@H](C2)N3Cc2ccccc2)c1	-16	8	8	/
CN1CC[C@]23c4c5ccc(O)c4OC2[C@H](O)C=CC3[C@H]1C5 (stereo partly specified)	-20	0	5	/
O=C1CC2OCC=C3CN4CCC56c7ccccc7N1C5C2C3CC46O (stereo unspecified)	4	2	2	/
CN(C)Cc1c[nH]c2cc([N+](=O)[O-])ccc12	-3	0	0	/
C=C1C(=O)OC2CCN3CC=C(COC(=O)C(C)(O)C4(CO4)C1C)C23 (stereo unspecified)	-4	4	5	/
Cc1ccccc1NC(=O)COC(=O)c1cc(C)n(C2CC2)c1C	-3	-3	1	/
COc1cc(OC)c(OC)cc1C=O	-10	0	-1	/
O=c1[nH]c2ccccc2n1C1CCN(Cc2ccc(-c3nc4ccc(F)cc4nc3-c3ccccc3)cc2)CC1	/	3	-14	-52
COC1C(O)C(C)OC(OC2C(Oc3cccc4c(O)c5c(=O)oc6ccc(C)c7c(=O)oc(c34)c5c67)OC(C)C(O)C2O)C1O (stereo unspecified)	/	3	7	21
CC(=O)C1CCC2C3C(N4CC4)CC4=CC(=O)CCC4(C)C3CCC12C (stereo unspecified)	/	-6	2	-15
CCCC1(CC(C)C)C(=O)NC(=S)NC1=O	/	-1	8	4
O=C1NC(=S)NC(=O)C1Cc1ccccc1O	/	0	1	-7
COC(=O)[C@@]1(Sc2ccc(C)cc2)CC(=O)N(P(=O)(OC)OC)[C@@H]1c1ccccc1	/	6	3	-28
CCC(C)C1NC(=O)C(NC(=O)C(CC(C)C)N(C)C(=O)C2CCCN2C(=O)C(C)O)C(C)OC(=O)C(Cc2ccc(OC)cc2)N(C)C(=O)C2CCCN2C(=O)C(CC(C)C)NC(=O)[C@H](C)C(=O)[C@H](C(C)C)OC(=O)CC1O (stereo partly specified)	/	-36	-36	83*
CC(=O)OC1CCC2(C)C(CCC3C2CC(=O)C2(C)C3CC(N3CC3)C2C(C)=O)C1 (stereo unspecified)	/	-2	-3	-8
CO[C@H]1C=CCCC=CC(=O)O[C@H]([C@H](C)C(=O)CCCC2CC(=O)NC(=O)C2)C(C)=C[C@@H](C)[C@@H]1O	/	1	1	-16
N#Cc1ccc2nc(-c3ccc(CN4CCC(n5c(=O)[nH]c6ccccc65)CC4)cc3)c(-c3ccccc3)nc2c1	/	-27	-28	-109
CC1OC(OC2C(O)CC(OC3C(O)CC(OC4CCC5(C)C(CCC6C5CCC5(C)C(C7=CC(=O)OC7)C(O)CC65O)C4)OC3C)OC2C)CC(O)C1O (stereo unspecified)	/	-39	-27	63*
CCOC(=O)[C@]12Cc3c(cc(OC)c(OC)c3OC)[C@H]1N(C(C)C)C(=O)c1cc(OC)ccc12	/	-12	-25	32
O=C1NC2C(O)C(O)C(O)C(O)C2c2cc3c(c(O)c21)OCO3 (stereo unspecified)	/	-41	-34	119*
CCC1C(c2cc(OC)c(OC)c(OC)c2)c2cc3c(cc2OC1N1CCCC1)OCO3 (stereo unspecified)	/	9	4	-101
CCOC(=O)[C@]12Cc3ccc(C)cc3[C@H]1N(C1CCCCC1)C(=O)c1ccccc12	/	-32	-33	16
Cc1nc2ccccc2c(=O)n1-c1nccs1	/	0	6	-57
COc1ccc(C(CC(C)=O)c2c(O)c3ccccc3oc2=O)cc1OC (stereo unspecified)	/	0	8	0
S=P(N1CCOCC1)(N1CC1)N1CC1	/	-3	3	?
CCC(C)(O)C(=O)OC1C(=O)OC2CC3C(C)=CC(=O)C(O)C3(C)C3C4(O)OCC23C1C(C)C4O (stereo unspecified)	/	-41	-39	76*
CN1C(=O)N(C)C(=O)C(NS(=O)(=O)c2ccc(N)cc2)(c2ccccc2)C1=O	/	2	5	-3
NC1=NC(=O)N2CC12 (stereo unspecified)	/	3	1	11
CC1CN1P(=S)(c1ccccc1)N1CC1C (stereo unspecified)	/	3	3	5
COC(=O)C1=C(C(=O)OC)SC2(S1)C(C(=O)OC)=C(C(=O)OC)Sc1c2ssc1=O	/	-4	5	i
CC(=O)OC1CC(OC2C(O)CC(OC3C(O)CC(OC4CCC5(C)C(CCC6C5CCC5(C)C(C7=CC(=O)OC7)CCC65O)C4)OC3C)OC2C)OC(C)C1OC1OC(CO)C(O)C(O)C1O (stereo unspecified)	/	-52	-29	69*
